# Autofluor counter – compound fluorescence in toxin protease inhibitor counterscreen. actives 3.1% (n = 360,000). compound autofluorescence counterscreen, microsphere flow cytometry; active compounds read high. fluorescence intensity (test concentration not listed). AID 624483;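 active = at least 3 SD above the mean of all compounds, about 16000 in these data; inconclusive = too few beads counted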;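 also: 100 nL of 1 mM stock went into each well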
# Mtb hypoxia inh – PubChem AID 1159583; actives 0.1% (n = 300,000); fluorescence inhibition, % (no concentration beside the values); M. tuberculosis hypoxia-regulated fluorescent reporter, fluorescence;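 active = 35 to 45% if threefold the growth effect, above 45% if 1.5-fold the growth effect; inactive = the rest, general growth blockers included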;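 also: wells of about 50 µL received 100 nL stock; 0% = vehicle wells and 100% = reference inhibitor wells; whole bacteria with a GFP reporter of the hypoxia response; strong numbers were not always called active; many hits fall short of the cut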
# Sa RN4220 lethal – growth inhibition of S. aureus RN4220, primary screen, OD600; 16 h; inhibition, % (test concentration not listed); actives 0.33% (n = 330,000);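 active = z-score of -3 or lower and OD600 up to 0.18 on both plates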;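 also: plate controls were untreated cells for no effect and reference antibiotic for full effect; stock transfer was 100 nL into about 80 µL; one replicate is shown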
# PrP UTR inh – inhibition of PrP 5' UTR reporter expression; cell-based PrP 5' UTR mRNA reporter, plate reader; actives 0.35% (n = 340,000); AID 488862, 2010; inhibition, % (concentration not given with the values);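 active = every replicate at 50% or more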;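 also: 0 = median of the neutral control wells; tested in H4 reporter cells; numbers are from one replicate; inactives centre near -14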
# Sa ugtP lethal – growth inhibition of ugtP-null S. aureus, primary screen, RN4220 ugtP deletion, OD600 | growth inhibition, % (concentration not given with the values) | 16 h; some inactives read as strong as hits | actives 0.54% (n = 330,000);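 active = z-score under -3 and OD600 up to 0.15 on both plates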;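 also: plate controls were untreated wells for no effect and antibiotic for full effect; wells of about 80 µL received 100 nL stock; the first replicate is given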
# BJeLR viability – MLPCN primary cell-based screen for lethality selective to Ras in HRASV12 cells | BJeLR (HRASV12) viability, CellTiter-Glo ATP luminescence, 48 h; reference of the scale not given here | inhibition, % (test concentration not listed) | actives 0.17% (n = 300,000);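 active = replicate mean above 50%; inconclusive = above 50% but judged a plate artefact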;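 also: 50 nL library stock added to about 25 µL; numbers are from one replicate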
# Mtb hypoxia inh growth – recorded beside Mtb hypoxia inh, whose call it bears; growth inhibition, %; measured here: M. tuberculosis growth (absorbance);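 0% = vehicle and 100% = reference antibiotic; read after six days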
# An asterisk follows results filed as active; ? = inconclusive; . = no result given.
cpd	compound	Autofluor counter	BJeLR viability	Sa RN4220 lethal	Sa ugtP lethal	Mtb hypoxia inh	PrP UTR inh	Mtb hypoxia inh growth
1	COCCN(C(=O)CSc1nncn1-c1ccccc1)c1c(N)n(Cc2ccccc2)c(=O)[nH]c1=O	2472	-15	-1.8	5	-6	-15	-1
2	CCCN(CCC)C(=O)NC1CC(=O)N(c2ccc(OC)cc2)C1 (configuration not stated)	2520	1	2.9	5	8	-4	-6
3	O=C(CCNS(=O)(=O)c1ccccc1)NNC(=O)COc1ccc(Cl)cc1	6299	.	0.9	4	3	4	7
4	O=C(NC1CCCC1)C(c1ccc(F)cc1)N(Cc1ccc(Cl)cc1)C(=O)CCl (configuration not stated)	9945	3	.	.	.	-19	.
5	Cc1ccc2c(c1)C1CN(C)CCC1N2S(=O)(=O)c1ccc(C#N)cc1 (configuration not stated)	5033	.	5.4	10	7	-9	2
6	COc1cccc(-c2c(C(=O)NN=Cc3ccc(C)s3)nnn2-c2nonc2N)c1	.	.	3.3	-2	10	.	1
7	Cc1ccc(-c2cccc(C(=O)NCCc3ccccc3)n2)c2ccccc12	3063	-10	1.0	8	4	-29	2
8	CC(C)CCOP(=O)(c1ccc(N(C)C)cc1)C(O)c1ccccc1 (configuration not stated)	3957	0	4.4	5	11	-15	6
9	COc1ccc(CNC(=O)C(NS(=O)(=O)c2ccc3c(c2)CCCN3C(C)=O)C(C)C)cc1 (configuration not stated)	?	.	-2.0	-3	0	1	2
10	COc1cccc(-c2ccc(NC(=O)C3CCCN(Cc4cnc(C)n4C)C3)cc2)c1 (configuration not stated)	5824	2	-7.3	-1	-4	-50	8
11	COc1ccc(-n2nnnc2SCC(=O)c2cc3ccccc3o2)cc1	3370	0	16	3	.	-3	.
12	CN(C)S(=O)(=O)N1CCN(CC(O)COc2ccc(C(=O)c3ccccc3)cc2)CC1 (configuration not stated)	4423	5	-0.3	-4	.	3	.
13	CC1(C)CN2C(=O)c3ccccc3C2(C)S1 (configuration not stated)	4631	4	5.1	0	7	-21	9
14	COc1ccc(C(=O)N2CCN(S(=O)(=O)c3ccccc3)CC2)c(OC)c1	11055	2	7.1	1	10	-4	0
15	CC(C)C(c1nnnn1CCc1ccccc1)N1CCOCC1 (configuration not stated)	3978	-2	0.8	0	.	-3	.
16	CN1CCN(Cc2nc3ccccc3n2C)CC1CCO (configuration not stated)	3648	-5	-0.7	-1	0	-17	13
17	Cc1ccccc1NC(=O)CCC(=O)NN=Cc1cc([N+](=O)[O-])ccc1O	.	.	95*	85*	16	.	9
18	Cn1c(=O)c([N+](=O)[O-])c(NCc2ccccc2)c2ccccc21	2989	9	5.1	-14	10	-9	3
19	N/C(=N\OC(=O)c1cc(Cl)ccc1Cl)c1cccnc1	4696	6	5.0	-8	.	-53	.
20	COCCNC(=O)CSc1nc2cc3c(cc2c(=O)n1CCCC(=O)NCCc1ccc(OC)c(OC)c1)OCO3	3672	20	12	5	9	2	10
21	O=C(COC(=O)c1cccc(S(=O)(=O)N2CCCC2)c1)Nc1ccccc1	4048	6	2.2	1	-4	-4	-6
22	Cc1ccc(Nc2n[nH]c(C)c2[N+](=O)[O-])cc1C	2060	-10	-3.8	-5	-4	-124	-13
23	Cc1cccc(C)c1NC(=O)COC(=O)/C=C/c1ccc(S(=O)(=O)N2CCOCC2)cc1	3568	.	6.7	-2	3	-18	5
24	C=CCn1c(C)nnc1SCC(=O)NC1CC1	6010	17	2.6	3	-2	-42	5
25	Cc1ccc(N2C(=O)CC(Sc3ncccn3)C2=O)cc1C (configuration not stated)	4227	-1	6.5	4	-6	-10	1
26	Cc1ccc(NC(=O)COC(=O)c2ccc(Cl)nc2)cc1S(=O)(=O)N1CCCCC1	3148	.	-2.2	-7	-4	-20	-2
27	Cc1nn(Cc2ccccc2)c(C)c1C=NNC(=O)c1cccnc1	.	.	0.8	6	-5	.	9
28	C=CCNc1nc(=S)[nH]c2cc(OC)c(OC)cc12	2626	-10	4.5	19	12	-16	-1
29	O=C(CNC(=O)c1ccc2c(c1)OCO2)N/N=C/c1cc(Br)ccc1O	5053	3	.	.	.	-12	.
30	CC(C)(C)c1ccc(C(=O)Nc2nonc2-c2nc3ccccc3[nH]2)cc1	4775	5	-2.7	-10	.	-14	.

# Among those listed so far, 5 have an aryl thioether with sulfur outside any ring:
cpd	compound	Autofluor counter	BJeLR viability	Sa RN4220 lethal	Sa ugtP lethal	Mtb hypoxia inh	PrP UTR inh	Mtb hypoxia inh growth
1	COCCN(C(=O)CSc1nncn1-c1ccccc1)c1c(N)n(Cc2ccccc2)c(=O)[nH]c1=O	2472	-15	-1.8	5	-6	-15	-1
11	COc1ccc(-n2nnnc2SCC(=O)c2cc3ccccc3o2)cc1	3370	0	16	3	.	-3	.
20	COCCNC(=O)CSc1nc2cc3c(cc2c(=O)n1CCCC(=O)NCCc1ccc(OC)c(OC)c1)OCO3	3672	20	12	5	9	2	10
24	C=CCn1c(C)nnc1SCC(=O)NC1CC1	6010	17	2.6	3	-2	-42	5
25	Cc1ccc(N2C(=O)CC(Sc3ncccn3)C2=O)cc1C (configuration not stated)	4227	-1	6.5	4	-6	-10	1

# Returning to the listing with the two entries that preceded the break.
cpd	compound	Autofluor counter	BJeLR viability	Sa RN4220 lethal	Sa ugtP lethal	Mtb hypoxia inh	PrP UTR inh	Mtb hypoxia inh growth
29	O=C(CNC(=O)c1ccc2c(c1)OCO2)N/N=C/c1cc(Br)ccc1O	5053	3	.	.	.	-12	.
30	CC(C)(C)c1ccc(C(=O)Nc2nonc2-c2nc3ccccc3[nH]2)cc1	4775	5	-2.7	-10	.	-14	.
31	CC(OC(=O)c1ccc2ncsc2c1)C(=O)N(C)C1CCCCC1 (configuration not stated)	?	.	3.7	4	8	3	1
32	S=c1[nH]ncc2ccccc12	12318	3	1.8	5	7	-5	12
33	COc1ccc(S(=O)(=O)NCC2CC3C=CC2C3)cc1OC (configuration not stated)	5593	0	-3.5	-1	3	-11	9
34	O=C(OC1CCS(=O)(=O)c2sccc21)c1ccccc1 (configuration not stated)	3717	-8	6.5	-4	.	1	.
35	COc1cc(/C=N/NC(=O)c2cnn3c(C)cc(-c4ccccc4)nc23)ccc1O	4782	5	.	.	.	0	.
36	CCCn1nnc(NC(=O)c2cc(Br)ccc2OC)n1	5719	2	0.2	-2	5	-14	4
37	COc1ccc(CCNC(=O)c2cc(C)oc2C)cc1	?	-1	-0.7	6	14	-10	-3
38	Cc1noc(/C=C/N(C)C)c1S(=O)(=O)N1CCCC(C(=O)NCc2ccc(Cl)cc2)C1 (configuration not stated)	10342	.	2.8	4	3	-28	1
39	CCN(CC1COc2ccccc2O1)C(=S)Nc1ccc(F)cc1 (configuration not stated)	2141	2	-3.2	3	3	-18	14
40	COC(=O)C1CC2(C(=O)OC)CC(C(=O)OC)(CC(C(=O)OC)C2=O)C1=O (configuration not stated)	4095	.	2.9	7	0	-16	3
41	COC(CNC(=O)C1CCC(CNS(=O)(=O)c2c(C)cc(C)cc2C)CC1)OC (configuration not stated)	3780	2	3.5	3	6	-19	-1
42	O=C(O)c1ccc2c(c1)N(Cc1ccccc1)C(=O)c1ccccc1S2=O (configuration not stated)	6627	-3	0.9	6	.	28	.
43	NC(=O)CC(NC(=O)c1ccc(Br)cc1)c1ccc(NC2CCCCCC2)c([N+](=O)[O-])c1 (configuration not stated)	3467	-7	0.5	-5	9	-26	-2
44	COc1ccc(C=C(C(=O)N2CCCCC2C(=O)O)c2ccc(OC)c(OC)c2)cc1 (configuration not stated)	.	.	7.9	2	4	.	8
45	C#CCOCCOCCOCCNc1nc(N2CCN(C(=O)[C@H](CCC(=O)O)n3cc([C@@H](N)[C@H](C)CC)nn3)CC2)nc(N2CCN(C(=O)[C@H](CCC(=O)O)n3cc([C@@H](N)CCSC)nn3)CC2)n1	3066	.	0.3	10	2	13	-3
46	CS(=O)(=O)N(Cc1ccc(Cl)cc1)c1ccc(C(=O)NCCC2=CCCCC2)cc1	11686	2	-1.9	-15	4	-18	7
47	O=C(NN=Cc1ccc(Br)s1)c1ccncc1	.	.	0.9	4	8	.	15
48	O=C(N/N=C/c1ccc([N+](=O)[O-])cc1)c1cc2ccccc2o1	3504	-1	.	.	.	-23	.
49	Cc1nc2nc(SCC(=O)N3CCC4(CC3)OCCO4)nn2c(C)c1Cc1ccccc1	8346	2	1.5	0	7	-5	9
50	Cc1ccnn1CC(=O)NN=Cc1cn[nH]c1-c1ccccc1	.	.	3.8	-4	5	.	6
51	CCC(=O)/C=C1\Sc2ccc(OC)cc2N1CCO	9484	-4	3.4	3	5	-9	7
52	Cc1ccc(C2NC(=O)c3sc(=S)n(-c4ccccc4)c3N2)cc1 (configuration not stated)	4429	-1	12	23	6	-32	1
53	CC(Cc1cccs1)NC(=S)Nc1ccc(Cl)cc1 (configuration not stated)	1974	2	0.4	-28	7	-20	-3
54	COc1ccc(-c2cc(C(F)(F)F)nc(-n3ccnc3C)n2)cc1	2133	0	1.8	-3	-2	0	-4
55	CCN1CC(CNC(=O)c2ccc3nc(Cc4cccc(Cl)c4)oc3c2)CC1=O (configuration not stated)	6046	9	3.3	4	1	-22	2
56	CCCCC(=O)NC(c1ccc([N+](=O)[O-])cc1)c1c(O)ccc2ccccc12 (configuration not stated)	7077	1	.	.	.	-28	.
57	CN(CCNC(=O)c1cccc(N2CCCC2=O)c1)Cc1ccccc1	3064	2	1.2	0	.	-20	.
58	Cc1ccc(Nc2nnc(SCC(=O)c3c(N)n(C4CC4)c(=O)[nH]c3=O)s2)cc1C	2911	.	-1.0	3	-5	-3	-13
59	N=Cc1c(O)n(-c2ccc(C34CC5CC(CC(C5)C3)C4)cc2)c(=O)[nH]c1=O	3023	4	3.1	-7	7	-4	7
60	CCCn1c2ccccc2c2cn[nH]c(=O)c21	3827	-7	6.6	13	10	-4	1

# Next section
cpd	compound	Autofluor counter	BJeLR viability	Sa RN4220 lethal	Sa ugtP lethal	Mtb hypoxia inh	PrP UTR inh	Mtb hypoxia inh growth
61	O=c1[nH]ccc2c([N+](=O)[O-])cccc12	2164	-3	6.7	-2	11	-23	0
62	COc1cc(S(=O)(=O)NC2CCCCC2C)ccc1-n1cnnn1 (configuration not stated)	3385	0	.	.	.	2	.
63	COc1cc(N2CCCC2)c(OC)cc1/C=C(/C#N)c1cccc(Br)c1	20000*	5	.	.	.	-7	.
64	Cc1cc(OCC(=O)N(Cc2cccs2)C2CCS(=O)(=O)C2)ccc1Cl (configuration not stated)	5758	-1	3.4	-6	5	-6	5
65	Cc1cc(C(=O)N/N=C2\CC(=O)CC(C)(C)C2)c(C)n1-c1ccc(F)cc1	2171	1	.	.	.	-30	.
66	Cc1ccn2c(=O)nc(SCC(=O)N3CCC(C)CC3)nc2c1	?	8	1.1	2	4	-10	10
67	COc1ccc(/C=C/C(=O)C2(O)CCCCC2)cc1	4454	5	5.1	6	21	-25	14
68	COCCCNC(=O)CCc1nc2cccnc2n1Cc1ccccc1	23819*	-4	2.3	4	1	-16	6
69	COc1ccccc1/C=N/NC(=O)c1ccc2c(c1)OCO2	3225	9	.	.	.	-37	.
70	O=C(Nc1ccc(Br)cc1)c1cccnc1N1CCCCC1	21086*	1	-3.1	-3	7	-22	10
71	COc1ccccc1N(C)S(=O)(=O)c1ccc(Cl)c(C(=O)Nc2cccc(C)n2)c1	4601	2	22	6	3	-23	-10
72	O=c1c2ccccc2c(=O)n(Cc2ccccc2)n1Cc1ccccc1	2510	6	2.0	59	0	-75	6

# Molecules shown so far that have a COOH group, in the order listed:
cpd	compound	Autofluor counter	BJeLR viability	Sa RN4220 lethal	Sa ugtP lethal	Mtb hypoxia inh	PrP UTR inh	Mtb hypoxia inh growth
42	O=C(O)c1ccc2c(c1)N(Cc1ccccc1)C(=O)c1ccccc1S2=O (configuration not stated)	6627	-3	0.9	6	.	28	.
44	COc1ccc(C=C(C(=O)N2CCCCC2C(=O)O)c2ccc(OC)c(OC)c2)cc1 (configuration not stated)	.	.	7.9	2	4	.	8
45	C#CCOCCOCCOCCNc1nc(N2CCN(C(=O)[C@H](CCC(=O)O)n3cc([C@@H](N)[C@H](C)CC)nn3)CC2)nc(N2CCN(C(=O)[C@H](CCC(=O)O)n3cc([C@@H](N)CCSC)nn3)CC2)n1	3066	.	0.3	10	2	13	-3

# Hits appear at their usual frequency; overall some 4.1% were active at least once.
